Source: PubChem (National Center for Advancing Translational Sciences (NCATS))
PI4K2A inh: inhibitors of human PI4K2A; purified PI4K2A, ADP-Glo luminescence, 1 h; stronger effect = lower value; activity change, negative = inhibition, % at 76.9 µM; 0.13% of 420,000 active; in the data active = activity change below about -50%; inconclusive = mostly about -30% to -49%;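 also: -100% = wells without enzyme as full effect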
Target sequence (Q9BTU6 whole entry, looked up): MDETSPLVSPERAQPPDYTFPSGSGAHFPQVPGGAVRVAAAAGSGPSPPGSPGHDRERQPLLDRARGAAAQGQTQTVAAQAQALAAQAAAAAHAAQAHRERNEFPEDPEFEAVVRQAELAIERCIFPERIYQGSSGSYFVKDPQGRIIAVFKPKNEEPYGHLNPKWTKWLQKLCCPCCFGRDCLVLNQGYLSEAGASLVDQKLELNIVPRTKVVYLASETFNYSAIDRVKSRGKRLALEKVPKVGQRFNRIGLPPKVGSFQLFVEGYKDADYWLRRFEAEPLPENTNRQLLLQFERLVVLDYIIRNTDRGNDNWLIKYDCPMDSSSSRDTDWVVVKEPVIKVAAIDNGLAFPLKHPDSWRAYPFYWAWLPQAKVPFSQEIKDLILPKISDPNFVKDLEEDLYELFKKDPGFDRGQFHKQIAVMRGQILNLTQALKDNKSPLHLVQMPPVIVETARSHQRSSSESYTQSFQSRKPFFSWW
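ADP-Glo luminescence measured ADP generated by PI4K2A enzyme (4 ug/mL before mixing) with 1.2 mM PI substrate (pre-mix) and 300 microM ATP (pre-mix). Tris pH7.5 buffer with MgCl2, Triton X-100; 1 h reaction at ambient temperature.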
GLS inhibitor: inhibitors of human glutaminase (GLS); O94925; GLS enzymatic activity, qHTS titration; Potency, µM (titrated, usually from 45.5 µM), without a hit: at the highest dose activity change, negative = inhibition, most hits filed as inhibitors; 0.21% of 410,000 active; AID 624170; also: potency is read from the fitted curve at half-maximal effect; % is scaled to controls: 0 for no effect and ±100 for the full control effect
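hKGA in 45 mM KH2PO4 (pH 8.2), 0.02% Tween-20 with compound, then 1mM L-Glutamine (stock as added) plus glutamate oxidase/HRP/Amplex red coupling mix. Fluorescence read initially and after 30 min at RT; signal change reflects glutamate formation.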
HP1b binding inh: blocks HP1-beta chromodomain binding to methylated histone tails; P83916; AlphaScreen HP1-beta / biotin-H3K9me3 peptide binding; Potency, µM (doses to about 114 µM), without a hit: top-dose activity change, negative = inhibition, most hits filed as inhibitors; 0.56% of 390,000 active; AID 540317; also: potency is read from the fitted curve at half-maximal effect; nearly all actives have a fitted effect of over 70% in size; inactives centre near 23
Target sequence (P83916 whole entry, looked up): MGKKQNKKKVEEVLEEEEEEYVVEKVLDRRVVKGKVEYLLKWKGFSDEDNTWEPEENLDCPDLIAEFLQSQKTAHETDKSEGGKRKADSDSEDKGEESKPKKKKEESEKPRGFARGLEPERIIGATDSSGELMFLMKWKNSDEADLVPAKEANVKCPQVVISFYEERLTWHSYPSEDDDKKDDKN
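AlphaScreen: HP1-beta (50 nM) preformed 30 min with biotin-H3(1-18)K9me3 peptide (50 nM) in PBS pH 7.4, 0.01% Tween-20. Compound added for 30 min at RT, then streptavidin donor/nickel chelate acceptor beads (10 ug/mL) for 30 min.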
Pin1 inh: human Pin1 inhibition; Q13526; Pin1 FP peptide displacement, HiFluor488, 10 min; Potency, µM (top dose mostly 115 µM), for inactives: at the top dose activity, negative = inhibition, most hits filed as inhibitors; 0.009% of 390,000 active; AID 504891; active = well fitted inhibition curve with a large enough effect in the polarisation, with a control signal flat, not every such curve was filed as active; inconclusive = small, poorly fitted or top-dose-only effect, or effect the other way, or a change in a side signal; inactive = no such curve, though single readings can be large or run the other way; the % refers to the polarisation; also: potency is read from the fitted curve at half-maximal effect; % is scaled to controls: 0 for no effect and ±100 for the full control effect
Target sequence (Q13526 whole entry, looked up): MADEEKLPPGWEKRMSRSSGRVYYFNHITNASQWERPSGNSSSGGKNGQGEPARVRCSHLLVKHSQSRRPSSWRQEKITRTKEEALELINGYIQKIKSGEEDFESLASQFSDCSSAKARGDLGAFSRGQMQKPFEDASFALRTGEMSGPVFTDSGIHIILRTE
Tb PGK inh: T. brucei PGK inhibition; P07378; PGK/GAPDH coupled, Kinase-Glo luminescence, 60 min; Potency, µM (series often up to 57.5 µM), for the others: at the top dose activity change, negative = inhibition, most hits filed as inhibitors; 0.043% of 380,000 active; AID 602233; also: potency is read from the fitted curve at half-maximal effect; % is scaled to controls: 0 for no effect and ±100 for the full control effect; nearly all actives have a fitted effect of over 60% in size
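Recombinant glycosomal PGK reaction used 1,3-bisphosphoglycerate generated in-well by GAPDH (100nM final) in 100mM TEA pH 7.6, 5mM MgCl2, 0.01% Tween-20. After 60 minutes at room temperature, ATP was read by Kinase-Glo Plus luminescence end-point.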
JMJD2A Tudor: blocks the human JMJD2A Tudor domain; Potency, µM (highest dose often 114 µM), without a hit: at the highest dose activity change, negative = inhibition, actives largely listed as inhibitors; AID 504339; O75164; AlphaScreen JMJD2A-Tudor / H3K4me3 peptide binding; 4.4% of 390,000 active; also: potency is read from the fitted curve at half-maximal effect; % is scaled to controls: 0 for no effect and ±100 for the full control effect; nearly all actives have a fitted effect of over 50% in size
Pol eta inh: inhibitors of human DNA polymerase eta | Q9Y253 | recombinant Pol eta, fluorescent DNA replication assay | Potency, µM (top dose mostly 114 µM), for the others: at the highest dose activity change, negative = inhibition, hits mostly inhibitors | 1.2% of 390,000 active | AID 588591; also: potency is read from the fitted curve at half-maximal effect; % is scaled to controls: 0 for no effect and ±100 for the full control effect
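Fluorescent replication assay: 50 nM final substrate added after a 15 min room-temperature compound preincubation with 10 nM enzyme. Signal taken at 0 min and again at 10 min.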
G9a block: G9a (human) methyltransferase inhibition. 8.8% of 350,000 active. G9a H3K9 monomethylation, AlphaScreen, 2 h. Q96KQ7. Potency, µM (highest dose often 102 µM), inactives show at the highest dose activity, negative = inhibition, hits mostly inhibitors; also: potency is read from the fitted curve at half-maximal effect; % is scaled to controls: 0 for no effect and ±100 for the full control effect; nearly all actives have a fitted effect of over 75% in size
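Chemiluminescent proximity detection of H3K9 monomethylation, read after 10 min bead incubation in the dark. Reaction: 20 nM G9a, 500 nM biotin-H3K9 peptide, 20 uM SAM cofactor, 2 h, room temperature, following 15 min enzyme-compound preincubation.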
An asterisk follows results filed as active; i = inactive; u = inconclusive; x = not tested or not shown; [ ] = dose if it differs, or a comment. Unless noted, calls follow the shape of the dose curve; as a rule, active = well fitted curve in the direction sought with a large enough effect; inconclusive = small, poorly fitted or top-dose-only effect, or another doubt; inactive = no such curve, though single readings can be large; an effect the other way counts as inactive or inconclusive.

Second line of a record – PI4K2A inh | GLS inhibitor | HP1b binding inh | Pin1 inh | Tb PGK inh | JMJD2A Tudor | Pol eta inh | G9a block
- O=S(=O)(c1cccc(C(F)(F)F)c1)N1CCC(O)(c2cccnc2)CC1
    -1.1 | 3.2% | 25.9% | -12.8% | 5.2% | -10.1% | -3.1% | -7.1%
- COc1cc2c(cc1OC)CN(C(=O)CSc1nc3[nH]ncc3c(=O)n1-c1ccccc1)CC2
    4.5 | -0.2% | 33.3% | u | 0.7% | -22.7% | -3.1% | u
- CC(NC(=O)c1ccc2c(c1)OCO2)C(c1cccs1)N1CCN(c2ccccc2)CC1 (configuration not stated)
    4.0 | 1.3% | 2.4% | 2.4% | -9.6% | -26.2% | -16.9% | -14.9%
- COc1ccc(N=C2S/C(=C\c3ccco3)C(=O)N2CC(C)C)cc1
    -3.3 | -13.8% | -22.8% | 7.2% | i | -29.1% | -10.1% | 35.5µM*
- COC(=O)c1c(N2C(=O)CC(Sc3ccccc3C(=O)O)C2=O)sc(C)c1C (configuration not stated)
    -4.0 | 3.3% | u | 3.4% | 4.2% | u | -20.4% | 1.58µM*
- COC(=O)CC1Oc2ccc(Cl)cc2-n2cc(-c3ccc(C)cc3)nc21 (configuration not stated)
    1.2 | 2.4% | 9.4% | 17.6% | -5.3% | -15.3% | 7.0% | u
- O=[N+]([O-])c1cccnc1N1CCC(c2cc(-c3ccc(Cl)cc3Cl)n[nH]2)CC1
    5.1 | -16.1% | u | -9.9% | -0.3% | -33.6%[11.4 µM] | -13.6% | u
- Cc1cccc(Cc2c(C)nc3nc(SCC(=O)NC4CCCCC4)nn3c2C)c1
    3.9 | -5.2% | 37.7% | -1.3% | 0.0% | 0.0% | -14.9% | 1.4%[59 µM]
- CCn1c(COc2ccc(C)cc2)nnc1SCC(=O)NCc1ccco1
    0.5 | -1.6% | 62.3%[activator] | -1.6% | i | -18.2% | -14.5% | -5.9%
- COc1ccc(C2=NC(c3ccncc3)=Nc3ccc(OC)cc3N2)cc1
    2.7 | -6.0% | -5.2% | -1.3% | -2.0% | u | -7.9% | u
- COC(=O)c1ccc(NC(=O)CSc2nnc(Cc3cccn3C)n2-c2ccc(F)cc2)cc1
    -2.0 | 2.6% | 15.4% | -2.2% | 2.1% | -26.8% | -13.5% | 44.7µM*
- O=C(NCc1ccc(F)cc1)NC(=O)c1ccc(Cl)cc1
    1.0 | 5.8% | 25.6% | 4.2% | 2.6% | -3.0% | -6.4% | x
- Clc1ccc(CSc2ccc(-c3ccccn3)nn2)cc1
    4.6 | 0.8% | 43.1%[activator] | -3.6% | 4.6% | -15.8% | -29.3% | -0.4%
- S=C1CCC(c2ccc(Br)cc2)=NN1c1ccccc1
    1.7 | -2.1% | 10.3% | 4.7% | -1.2% | u | 3.6% | x
- O=[N+]([O-])c1cc(Cl)ccc1-c1nc(-c2ccccc2)no1
    -1.1 | 10.8% | u | 0.8% | -0.9% | u | -19.5% | 10µM*
- N#Cc1nc(COc2ccccc2)oc1N1CCN(Cc2ccccc2)CC1
    -1.8 | -0.5% | u | u | -0.1% | -26.0%[11.4 µM] | -13.1% | u
- Cc1cccc(C(c2sc3nc(-c4ccco4)nn3c2O)N2CCN(c3ccccc3)CC2)c1 (configuration not stated)
    49.5 | 20.1% | -12.2% | 1.5% | -11.7% | u | -18.6% | u
- O=C1/C(=C/c2cccs2)Sc2ccccc21
    -4.8 | 6.1% | -27.2% | 16.9% | 11.0% | u | -3.7% | u
- CC(Oc1ccc(F)cc1)C(=O)Nc1sc2c(c1C(=O)NCc1cccnc1)CCCC2 (configuration not stated)
    -2.0 | -1.3% | 11.5% | 23.4% | -4.1% | -27.3% | -17.3% | 44.7µM*
- O=c1oc2ccccc2c(Nc2cccc3ccccc23)c1[N+](=O)[O-]
    -2.5 | 24.8% | -18.0% | -0.3% | -2.2% | u | 2.3% | 1.8%[0.501 µM]
- COc1ccc(C)cc1NC(=O)c1sc2ncn(CC(=O)N3CCCCC3)c(=O)c2c1C
    7.1 | -10.1% | 22.2% | -4.7% | -2.8% | 13.4% | -14.2% | 17.6%
- Cc1ccc(NC2c3ncccc3C(=O)N2Cc2cccs2)cc1C (configuration not stated)
    -2.6 | 17.2% | -2.9% | 0.7% | 3.0% | u | -17.7% | 28.2µM*
- CCN(CC)c1ccc(C(=S)NCc2ccccc2)cc1
    1.3 | 15.5% | u | -3.8% | 3.9% | u | -12.8% | x
- CCn1c(=O)c(C(=O)CN2CCc3ccccc32)c(N)n(Cc2ccccc2)c1=O
    -1.5 | u | 31.5% | 15.0% | i | -22.5% | -26.9% | 44.7µM*
- CN(c1ccccc1)c1nc(-n2ccnc2)nc(-n2ccnc2)n1
    -4.8 | 3.9% | 19.1% | -11.2% | -1.8% | -16.3% | -10.2% | -11.1%
- Cc1ccc(NC(=O)CO/N=C/c2ccc(N(C)C)cc2)cc1
    -1.5 | 0.9% | -5.2% | u | -1.3% | -33.6% | -24.2% | u
- Cc1ccccc1CSc1ccc2nnc(-c3ccccn3)n2n1
    -1.5 | -10.3% | 32.1% | 3.6% | 5.9% | u | -15.2% | -2.8%
- CCc1nnc(NC(=O)CSc2nnc(-c3ccc(OC)cc3)n2C)s1
    -3.5 | -19.8% | 31.8%[activator] | -4.7% | i | -0.7% | -8.6% | 21.6%[12.7 µM]
- CCCn1c(=O)c(C(=O)Nc2ccccc2C)c(O)c2ccccc21
    -1.9 | 3.3% | 34.5%[activator] | -5.1% | -9.4% | -0.7% | -18.7% | u

Arranged by number of heavy atoms (smallest number first): some entries from above
Second line of a record – PI4K2A inh | GLS inhibitor | HP1b binding inh | Pin1 inh | Tb PGK inh | JMJD2A Tudor | Pol eta inh | G9a block
- O=C1/C(=C/c2cccs2)Sc2ccccc21
    -4.8 | 6.1% | -27.2% | 16.9% | 11.0% | u | -3.7% | u
- S=C1CCC(c2ccc(Br)cc2)=NN1c1ccccc1
    1.7 | -2.1% | 10.3% | 4.7% | -1.2% | u | 3.6% | x
- Clc1ccc(CSc2ccc(-c3ccccn3)nn2)cc1
    4.6 | 0.8% | 43.1%[activator] | -3.6% | 4.6% | -15.8% | -29.3% | -0.4%
- Cc1ccc(NC(=O)CO/N=C/c2ccc(N(C)C)cc2)cc1
    -1.5 | 0.9% | -5.2% | u | -1.3% | -33.6% | -24.2% | u
- Cc1ccccc1CSc1ccc2nnc(-c3ccccn3)n2n1
    -1.5 | -10.3% | 32.1% | 3.6% | 5.9% | u | -15.2% | -2.8%
- O=c1oc2ccccc2c(Nc2cccc3ccccc23)c1[N+](=O)[O-]
    -2.5 | 24.8% | -18.0% | -0.3% | -2.2% | u | 2.3% | 1.8%[0.501 µM]
- COC(=O)CC1Oc2ccc(Cl)cc2-n2cc(-c3ccc(C)cc3)nc21 (configuration not stated)
    1.2 | 2.4% | 9.4% | 17.6% | -5.3% | -15.3% | 7.0% | u
- CCn1c(COc2ccc(C)cc2)nnc1SCC(=O)NCc1ccco1
    0.5 | -1.6% | 62.3%[activator] | -1.6% | i | -18.2% | -14.5% | -5.9%
- O=[N+]([O-])c1cccnc1N1CCC(c2cc(-c3ccc(Cl)cc3Cl)n[nH]2)CC1
    5.1 | -16.1% | u | -9.9% | -0.3% | -33.6%[11.4 µM] | -13.6% | u
- CCn1c(=O)c(C(=O)CN2CCc3ccccc32)c(N)n(Cc2ccccc2)c1=O
    -1.5 | u | 31.5% | 15.0% | i | -22.5% | -26.9% | 44.7µM*
- COc1ccc(C)cc1NC(=O)c1sc2ncn(CC(=O)N3CCCCC3)c(=O)c2c1C
    7.1 | -10.1% | 22.2% | -4.7% | -2.8% | 13.4% | -14.2% | 17.6%
- COC(=O)c1ccc(NC(=O)CSc2nnc(Cc3cccn3C)n2-c2ccc(F)cc2)cc1
    -2.0 | 2.6% | 15.4% | -2.2% | 2.1% | -26.8% | -13.5% | 44.7µM*

Sorted by number of heavy atoms (ascending): three of the compounds above
Second line of a record – PI4K2A inh | GLS inhibitor | HP1b binding inh | Pin1 inh | Tb PGK inh | JMJD2A Tudor | Pol eta inh | G9a block
- CCN(CC)c1ccc(C(=S)NCc2ccccc2)cc1
    1.3 | 15.5% | u | -3.8% | 3.9% | u | -12.8% | x
- COC(=O)c1c(N2C(=O)CC(Sc3ccccc3C(=O)O)C2=O)sc(C)c1C (configuration not stated)
    -4.0 | 3.3% | u | 3.4% | 4.2% | u | -20.4% | 1.58µM*
- COC(=O)c1ccc(NC(=O)CSc2nnc(Cc3cccn3C)n2-c2ccc(F)cc2)cc1
    -2.0 | 2.6% | 15.4% | -2.2% | 2.1% | -26.8% | -13.5% | 44.7µM*

Some of the compounds tested; rates above refer to the full screens.
